# Source: PubChem (National Center for Advancing Translational Sciences (NCATS))
# Vaccinia Venus = vaccinia inhibition (Venus reporter). Vaccinia virus Venus reporter expression, fluorescence. Potency, µM (highest dose often 36.5 µM), for the others: at the highest dose activity change, negative = inhibition, actives largely listed as inhibitors. hit rate 0.46% among 330,000; active means well fitted inhibition curve with a large enough effect; inconclusive means small, poorly fitted or top-dose-only effect; inactive means no such curve, though single readings can be large or run the other way; tested in A549 cells; further: nearly all actives have a fitted effect of over 30% in size; inactives centre near -10
# Vaccinia mCherry = vaccinia inhibition (mCherry reporter); Potency, µM (highest dose often 36.5 µM), for the others: at the top dose activity change, negative = inhibition, most hits filed as inhibitors; Vaccinia virus mCherry reporter infection, fluorescence; about a quarter of the inactives have no number; hit rate 0.63% among 310,000; active = well fitted inhibition curve with a large enough effect; inconclusive = small, poorly fitted or top-dose-only effect; inactive = no such curve, though single readings can be large or run the other way; tested in A549 cells; further: nearly all actives have a fitted effect of over 35% in size; inactives centre near -10
# Starred values were filed as active, the others as inactive; i = inactive; u = inconclusive; x = not tested or not shown; [ ] = another dose, or the depositor's remark. On the % scale 0 is the no-effect control and ±100 the full control effect; potency means the concentration at half of the fitted maximal effect.
SMILES,Vaccinia Venus,Vaccinia mCherry
CC(C)(C)OC(=O)N1CCC(c2c(C(=O)N3CCN(c4ccccn4)CC3)cnn2-c2ccccc2Cl)CC1,-10%,i
Nc1[nH]c(=S)nc2nnsc12,-12%,-20%
Oc1ccc(Nc2nc(Cl)nc(NCc3ccco3)n2)cc1,-19%,-26%
Cc1ccc(C(=O)C2(C)C3c4cc(Br)ccc4OC(=O)C32C(=O)c2ccco2)cc1 (configuration not stated),-1%,x
CNC(=O)[C@H]1O[C@@H](n2cnc3c(NCc4ccc(N)cc4)ncnc32)[C@H](O)[C@@H]1O,-5%,i
Cc1ccc(NC(=O)c2sc3nc4c(cc3c2N)CN(Cc2ccccc2)CC4)cc1,u,u
CCc1ccc(NC2=NCC(=O)N2Cc2ccc3c(c2)OCO3)cc1,-12%,-2%
NC(=O)COC(=O)CCCc1c[nH]c2ccccc12,7%,x
O=C1C=C(c2ccc(Cl)c(C(F)(F)F)c2)C[C@@H](c2ccc(Cl)cc2)C1,-19%,-5%
CCC(=O)c1ccc(OC(=O)N(C)c2ccccc2)cc1,-8%,i
Cc1ccc(Nc2nc3ccccc3c(=O)s2)cc1,-6%,i
COc1ccc(NC(=O)Cn2nnc(-c3ccccc3N)n2)cc1OC,-22%,0%
Cc1cc(NC(=O)CSc2nnc(-c3ccc(S(=O)(=O)N4CCCC4)cc3)n2C)no1,-9%,i
Cc1ccccc1S(=O)(=O)Cc1ccc(C(=O)NCc2ccco2)o1,-7%,-8%
O=C(CN1CCN(c2ccc(O)cc2)CC1)Nc1ccc(-c2ccccc2)cc1,1%,i
CCN1CCN(C(c2ccc(OC)cc2)C(O)C(=O)c2c[nH]c3ccccc23)CC1 (configuration not stated),-8%,x
CC(Sc1nc2ncc(Cl)cc2[nH]1)C(=O)Nc1ccccc1[N+](=O)[O-] (configuration not stated),-24%,i
COc1cccc(-c2nc3sc4c(c3c(=O)[nH]2)CCCCC4)c1,-5%,-13%
O=C(Cn1nc2c(cc1=O)CCCC2)Nc1ccccc1C(F)(F)F,-10%,-10%
O=C(NCCCn1ccnc1)c1ccc(-c2ccccc2)cc1,-13%,-1%
Cc1ccc(C(=O)n2nc(C)c(S(=O)(=O)N3CCCCCC3)c2C)cc1,-7%,-11%
CCOC(=O)Nc1sc2c(c1C#N)CCCC2,-10%,x
O=C(Cn1nc(-c2ccccc2)nc(Cc2ccccc2)c1=O)Nc1ccccc1,-17%,-19%
COc1ccc2c(CSc3nnc(-c4cccnc4)n3-c3ccccc3F)cc(=O)oc2c1,-5%,-7%
OC1(c2ccc(F)cc2)CN(c2ccccc2)C2=[N+]1CCS2 (configuration not stated),-17%,-20%

# Random excerpt: two compounds from above.
SMILES,Vaccinia Venus,Vaccinia mCherry
COc1ccc2c(CSc3nnc(-c4cccnc4)n3-c3ccccc3F)cc(=O)oc2c1,-5%,-7%
CCOC(=O)Nc1sc2c(c1C#N)CCCC2,-10%,x

# The listing continues.
SMILES,Vaccinia Venus,Vaccinia mCherry
O=[n+]1c2c(n([O-])c3cc(Br)ccc31)CCCC2,-1%,-12%
CCS(=O)(=O)c1ccc(O)c(NC(=O)COc2ccc(C)cc2)c1,-12%,i
O=C(NCc1ccccc1)c1nc2c(nnn2Cc2cccc(Cl)c2)c(=O)[nH]1,-5%,i
CCCCCCCCCCCCC/C=C/[C@@H](O)[C@H](CO)NC(=O)CCCCCCC,-17%[3.33 µM],-18%[3.33 µM]
CC(OC(=O)c1cccnc1SCc1cc(=O)n2ccccc2n1)c1ccccn1 (configuration not stated),-24%,-29%
O=C(CSc1nc2c(c(=O)n1-c1ccc(F)cc1)SCC2)NCC1CCCO1 (configuration not stated),-7%,-15%
COC(=O)C(NC(=O)c1ccc(OC)cc1)(Nc1ncc(S(=O)(=O)c2ccc([N+](=O)[O-])cc2)s1)C(F)(F)F (configuration not stated),u,u
COC(=O)CCCC1=CC2=CC(=O)C(C)(OC(=O)c3cccs3)C(=O)C2=CN1CCN1CCOCC1 (configuration not stated),16%,3%
Cc1c(C(=O)NN)nn(-c2ccc(Cl)cc2)c(=O)c1C#N,-4%,i
O=C(NCCc1cn2ccccc2n1)c1ccc(Br)o1,-19%,-14%
Cc1ccc(-c2nc3ccc(Cl)cn3c2Nc2ccc3c(c2)OCCO3)s1,4%,-1%
CSc1cccc(NC(=O)C2(S(=O)(=O)c3ccc(C)cc3)CC2)c1,-5%,-7%
O=C(Cn1cncn1)N/N=C/c1cccc2ccccc12,-13%,i
O=C(NCC1CCCO1)c1c(O)c2cccc3c2n(c1=O)CC3 (configuration not stated),3%,x
CC(C)NC(=O)C1(C)CN(S(C)(=O)=O)CC(=O)N1C1CCN(Cc2ccccc2)CC1 (configuration not stated),-8%,-13%
COC(=O)[C@@]1(Cc2ccc(OC)cc2)[C@@H]2[C@@H](CC(=O)[C@H]2CC(=O)C(=O)N(C)C)CN1C(=O)c1ccccc1,-13%,-11%
COc1ccc(-n2nc([N+](=O)[O-])c(=NCCc3ccccc3)n2O)cc1,-20%,-14%
CCOCCCNC(=O)C(NC(=O)c1ccccn1)c1ccc(C)cc1 (configuration not stated),1%,-21%
Cc1ccc(C=Nc2cc([N+](=O)[O-])ccc2C)s1,-8%,i
COc1ccccc1N(CC(=O)NC1CCCCC1)S(C)(=O)=O,-17%,i
O=C(Nc1ccc(F)cc1)c1ccccc1NS(=O)(=O)N1CCCC1,-7%,-14%
CC1=C(C(=O)NCc2cccc(F)c2)C2(CCCCC2)OC1=O,-16%,-12%
NC1(C#Cc2ccc3oc(=O)c(-n4cc(-c5ccsc5)nn4)cc3c2)CCCCC1,u,-14%
C=Cn1cc[n+](CC(=O)c2ccc(Cl)cc2)c1,-11%,-25%
CCOC(=O)N1CCC(NC(=O)c2cc3ccccn3n2)CC1,9%,10%
SMILES,Vaccinia Venus,Vaccinia mCherry
COc1cc(-c2nc3n(c(=O)c2C#N)CCS3)cc(OC)c1OC,-2%,i
COc1cc(OC)c(NC(=O)c2cc3c(=O)oc4ccc(C)cc4c3s2)cc1Cl,-21%,-19%
CCO[C@H]1OC(C(=O)N2CCN(Cc3ccccc3)CC2)=C[C@@H](C2CCCCC2)[C@@H]1CCCO,u,i
CC(CNC(=O)CCC(=O)N1CCOc2ccc(Cl)cc21)c1ccccc1 (configuration not stated),u,-15%
O=C(Nc1cccc(S(=O)(=O)N2CCOCC2)c1)c1ccc2c(=O)n3c(nc2c1)CCCCC3,u,u
O=C(CC1c2cc(F)ccc2C=C(c2ccsc2)N1c1ccc(C#CCCO)cc1)c1ccco1 (configuration not stated),-11%,19%
COc1ccc(-c2cn3ccccc3n2)cc1[N+](=O)[O-],-18%,i
Cc1c(NC(=O)c2cc(-c3ccccc3)nc3ccccc23)c(=O)n(-c2ccccc2)n1C,-19%,-6%
O=C(COc1cc(Cl)ccc1Cl)Nc1ccc(Cl)cc1C(=O)c1ccccc1,u,u
CNC(=O)CC1C(=O)N(c2ccc(F)cc2)C(=S)N1NC(=O)c1ccc(Cl)cc1 (configuration not stated),-6%,-17%
Cc1nc2cc(C(=O)OCC(=O)Nc3ccc(C#N)cc3)ccc2n1-c1ccccc1,2%,-5%
CC(CCc1ccccc1)NC(=O)c1ccccc1C(=O)O (configuration not stated),-6%,-4%
COc1ccc(C(=O)N2CCC(NC(=O)C(Cc3ccccc3OC)NC(C)=O)CC2)cc1 (configuration not stated),-3%,-12%
COc1cc(/C=N/n2cnnc2)ccc1OCc1ccccc1,-14%,-11%
COC(=O)c1cc2oc3ccccc3c2n1CC(=O)Nc1ccc(N(C)C)cc1,1%,-3%
COC(=O)C1=C(C)NC(=O)NC1c1ccc(-c2ccccc2Cl)o1 (configuration not stated),5%,-1%
COc1ccc(/C=N\Nc2ccccc2[N+](=O)[O-])c(C(=O)O)c1OC,-7%,-20%
C#CCNC(=O)C1=C[C@@H](c2ccc(C#C)cc2)C[C@@H](OCc2ccc(CO)cc2)O1,-12%,0%
CC(C)NC(=O)C(=O)NCCC1CCCCN1S(=O)(=O)c1cccs1 (configuration not stated),-13%,-20%
Cc1ccc(S(=O)(=O)c2nnn3c2nc(N2CCC(C)CC2)c2cc(Cl)ccc23)cc1C,-29%,-24%
Cc1ccc(CNc2ncnc3sc(C(=O)N4CCC(N5CCCC(O)C5)CC4)c(C)c23)o1 (configuration not stated),-8%,-15%
CC1(C)CC(=O)C=C(c2cccc3c2Oc2ccccc2S3)C1,-30%,-15%
CCOC(=O)c1sc(=NC(=O)c2ccc(S(=O)(=O)N3CC(C)OC(C)C3)cc2)n(C)c1C (configuration not stated),-13%,-19%
CC(=O)N1[C@@H]2CC3C4CC=C5C[C@@H](O)CC[C@]5(C)C4CC[C@]3(C)[C@@]21C(C)=O (some centres not stated),-26%,-8%
Cc1ccc(C(=O)CC2(O)C(=O)N(Cc3ccccc3Cl)c3ccccc32)o1 (configuration not stated),-16%,-24%
SMILES,Vaccinia Venus,Vaccinia mCherry
COc1ccc(C2C(C(=O)Nc3ccccc3)=C(C)Nc3c(C(=O)Nc4ccccc4)cnn32)cc1 (configuration not stated),-4%,i
OC[C@@H]1CN(Cc2ccc(-c3ccccc3)cc2)C[C@H](n2cnc3c(NCc4ccco4)ncnc32)O1,-23%,13%
CCCOc1c(Cl)cc(C(=O)N(Cc2cccc(OC)c2)C2CCS(=O)(=O)C2)cc1Cl (configuration not stated),-11%,-18%
O=C(NN=Cc1ccc2c(c1)CCC2)c1ccccc1[N+](=O)[O-],-26%,-14%
COc1ccc2c(c1)O[C@H](c1ccc3c(c1)OCO3)[C@@H](OC(=O)N[C@H]1CCCc3ccccc31)C2=O,-25%,-23%
CCCCc1ccc(NC(=O)C(=O)NCCN2CCN(C(=O)c3ccc([N+](=O)[O-])cc3)CC2)cc1,4%,-4%
OCCNCc1cccc(OCc2ccc(Cl)cc2)c1,-14%,u
Cc1nc2nc(C)c(CCC(=O)N3CCC4(CC3)OCCO4)c(C)n2n1,-10%,-22%
O=Cc1ccc(C(=O)OCC(=O)NC(=O)Nc2ccccc2F)cc1,26%,-2%
Cc1ccc(CNC(=O)c2nccnc2C(=O)O)cc1,-12%,i
NS(=O)(=O)c1ccc(NC(=O)COC(=O)c2ccc(Cl)nc2)cc1,-9%,i
Cc1ccc(OC(=O)c2ccccc2)cc1C,-6%,i
O=C(CSc1nc(-c2cccs2)cc(C(F)(F)F)n1)NCCCn1ccnc1,-14%,-15%
C=CCNC(=S)NNC(=O)c1cccc(Br)c1,-4%,-17%
COc1ccc(C2=NN(C(=O)/C=C/c3ccccc3)C(c3ccccc3)C2)c(OC(C)=O)c1 (configuration not stated),-29%,-14%
Cc1ccc(-c2nnn(CC(=O)N(CC(=O)NC3CCCC3)c3ccc(F)cc3)n2)o1,-9%,34%[activator]
CCOC(=O)Cn1c(C)nc2ccccc21,-29%,x
Cc1ccc(/C=N/n2c(-c3ccco3)n[nH]c2=S)cc1,-21%,-20%
S=C(Nc1ccc(Cl)cc1)NC1CCN(Cc2ccccc2)CC1,u,u
COc1ccccc1NC(=O)c1cn(CCC#N)nc1-c1ccc(F)cc1,-13%,i
COC(=O)c1ccccc1S(=O)(=O)N1CCC(C(=O)NCc2ccccn2)CC1,-2%,i
CCc1ccc(C(C(=O)NCc2ccccc2)N(C(=O)c2csnn2)C2CC2)cc1 (configuration not stated),10%,u
COc1cc(C(F)(F)F)c(C(=O)N(C)c2ccc(Cl)cc2)cn1,-15%,-7%
O=C(CCNS(=O)(=O)c1cccc2nonc12)Nc1ccc(F)cc1,8%,1%
COc1ccc2sc(-c3ccc(SC)cc3)c(C#CC(C)(C)O)c2c1,u,u
SMILES,Vaccinia Venus,Vaccinia mCherry
Nn1c(SCc2cn3ccsc3n2)nnc1-c1ccncc1,-10%,-12%
COc1cccc(C(c2c(N)[nH]c(=S)[nH]c2=O)c2c(N)[nH]c(=S)[nH]c2=O)c1,-5%[7.34 µM],i[7.34 µM]
COc1cc(/C=C(\C#N)c2ccccn2)ccc1OCc1ccccc1,-1%,i
C=CCN(C(=O)c1cc(C)cc(C)c1)C1(C(=O)Nc2ccccc2)CCN(C(C)C)CC1,-4%,-12%
COc1cc(-c2cnc3c(NC=O)cc(-c4ccc(S(C)(=O)=O)cc4)cn23)cc(OC)c1OC,u,u
CCOC(=O)c1cc(-c2ccc(C)cc2)n(CC(=O)Nc2ccc(OC)cc2OC)c1C,u,u

# Of the compounds above, eleven have two or more sulfur atoms:
SMILES,Vaccinia Venus,Vaccinia mCherry
Nc1[nH]c(=S)nc2nnsc12,-12%,-20%
Cc1cc(NC(=O)CSc2nnc(-c3ccc(S(=O)(=O)N4CCCC4)cc3)n2C)no1,-9%,i
O=C(CSc1nc2c(c(=O)n1-c1ccc(F)cc1)SCC2)NCC1CCCO1 (configuration not stated),-7%,-15%
COC(=O)C(NC(=O)c1ccc(OC)cc1)(Nc1ncc(S(=O)(=O)c2ccc([N+](=O)[O-])cc2)s1)C(F)(F)F (configuration not stated),u,u
CSc1cccc(NC(=O)C2(S(=O)(=O)c3ccc(C)cc3)CC2)c1,-5%,-7%
CC(C)NC(=O)C(=O)NCCC1CCCCN1S(=O)(=O)c1cccs1 (configuration not stated),-13%,-20%
CCOC(=O)c1sc(=NC(=O)c2ccc(S(=O)(=O)N3CC(C)OC(C)C3)cc2)n(C)c1C (configuration not stated),-13%,-19%
O=C(CSc1nc(-c2cccs2)cc(C(F)(F)F)n1)NCCCn1ccnc1,-14%,-15%
COc1ccc2sc(-c3ccc(SC)cc3)c(C#CC(C)(C)O)c2c1,u,u
Nn1c(SCc2cn3ccsc3n2)nnc1-c1ccncc1,-10%,-12%
COc1cccc(C(c2c(N)[nH]c(=S)[nH]c2=O)c2c(N)[nH]c(=S)[nH]c2=O)c1,-5%[7.34 µM],i[7.34 µM]
